TRPV1 PAM = potentiators of human vanilloid receptor 1 (TRPV1). Q8NER1. potentiation, % at 8.33 µM. AID 540277. TRPV1-expressing cells, Fluo-8 calcium influx, capsaicin EC20 potentiation; host cell line not named in the record; control for the full effect not named in the record. 320,000 compounds, 0.02% hits; active means potentiation above 80%; inconclusive means 30% to 80%; inactive means below 30%; also: 0% is about no effect
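Fluo-8 calcium influx in TRPV1-expressing cells, kinetic read (ex 480/em 520 nm). Compound added and read 3 min for agonist activity, followed by capsaicin at EC20 final and 2 min further read for enhancement.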
Six1-Eya2 blk = inhibitors of human Six1/Eya2 interaction; AlphaScreen GST-Six1/His-Eya2 binding, biochemical; hits give low values; control for the full effect not named in the record; activity change, % (test concentration not listed); 360,000 compounds, 0.56% hits; AID 651725; in the data active = activity change below about -65%; inconclusive = about -30% to -65%; inactive = above about -30%; also: % is scaled to controls: 0 for no effect and ±100 for the full control effect
Target sequence (O00167 whole entry, looked up): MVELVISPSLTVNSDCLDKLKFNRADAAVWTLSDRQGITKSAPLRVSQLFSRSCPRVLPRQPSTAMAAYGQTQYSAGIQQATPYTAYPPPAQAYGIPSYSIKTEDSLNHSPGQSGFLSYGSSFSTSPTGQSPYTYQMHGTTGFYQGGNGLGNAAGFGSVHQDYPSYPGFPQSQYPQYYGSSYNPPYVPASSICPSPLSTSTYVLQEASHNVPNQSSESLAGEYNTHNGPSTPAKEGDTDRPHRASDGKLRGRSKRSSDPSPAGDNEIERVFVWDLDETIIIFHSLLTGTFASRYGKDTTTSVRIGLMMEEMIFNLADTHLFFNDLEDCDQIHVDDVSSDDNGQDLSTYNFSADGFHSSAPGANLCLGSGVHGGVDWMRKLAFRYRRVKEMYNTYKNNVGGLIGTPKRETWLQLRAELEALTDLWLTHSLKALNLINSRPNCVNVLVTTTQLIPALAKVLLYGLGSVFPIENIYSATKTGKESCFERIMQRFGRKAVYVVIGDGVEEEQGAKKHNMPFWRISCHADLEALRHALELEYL
Target sequence (Q15475 whole entry, looked up): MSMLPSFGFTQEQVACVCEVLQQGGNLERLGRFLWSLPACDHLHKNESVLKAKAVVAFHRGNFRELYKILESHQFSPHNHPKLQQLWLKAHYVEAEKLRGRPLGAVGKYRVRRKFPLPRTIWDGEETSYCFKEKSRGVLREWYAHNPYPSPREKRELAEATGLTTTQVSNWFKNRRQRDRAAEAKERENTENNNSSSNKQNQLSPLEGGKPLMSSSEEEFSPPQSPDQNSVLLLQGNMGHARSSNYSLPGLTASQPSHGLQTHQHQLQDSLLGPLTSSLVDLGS
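GST-Six1 + His-Eya2 (5X stock: 250/500 nM); Tris pH 8.0, 300 mM NaCl, 0.05% BSA, 0.02% Tween 20; GSH donor/Ni acceptor beads; 1 h 37 °C dark; AlphaScreen readout.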
TRPML1 blocker = inhibitors of human TRPML1 channel | activity change, negative = inhibition, % (concentration not given with the values) | Q9GZU1 | TRPML1-inducible cells, Ca2+ dye fluorescence, FDSS; hits give low values; inhibition of EC80 agonist-evoked calcium signal | 390,000 compounds, 0.02% hits; in the data active means activity change below about -50%; inconclusive means about -30% to -50%; inactive means above about -30%;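 also: stimulus is agonist 54-4 at its EC80 concentration; % is scaled to controls: 0 for no effect and ±100 for the full control effect; the text of the record puts the active cut at -80%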
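Calcium fluorescence in TRPML1-DL cells induced overnight with Tet: a 110 s read after compound pin addition, then a 110 s antagonist read after challenge with 54-4 at 4 uM final (EC80).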
D2 potentiator = positive allosteric modulators of human D2 dopamine receptor. P14416. DiscoveRx D2 beta-arrestin cells, luminescence, 90 min; 100% = 57 uM dopamine signal. potentiation, % (no concentration beside the values). 360,000 compounds, 0.23% hits; active = potentiation of 50% or more; inconclusive = 30% to 50%; inactive = 30% or less;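 also: compound concentration not given in the record; tested on top of an EC20 dose of dopamine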
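D2 cells co-treated with compound plus 50 nM dopamine (EC20) for 90 min at 37 deg C to detect potentiation. Beta-arrestin recruitment was read as enzyme-fragment luminescence after 1 h at ambient temperature. Full response was set by 57 uM dopamine.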
CtBP-E1A blk = CtBP/E1A binding inhibition; activity change, % (no concentration beside the values); AID 651724; 340,000 compounds, 0.49% hits; AlphaScreen GST-E1A/His-CtBP binding, 1536-well; hits give low values; control for the full effect not named in the record; in the data active means activity change below about -65%; inconclusive means about -30% to -65%; inactive means above about -30%; also: % is scaled to controls: 0 for no effect and ±100 for the full control effect
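Protein mix (5X: 125 nM each GST-E1A, His-CtBP) was incubated with pinned compound 2 h at 37 deg C in dark, in 50 mM Tris pH 8.0 buffer with 300 mM NaCl. Glutathione donor and nickel acceptor beads followed; AlphaScreen signal read after 1 h.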
TRPML1 agonist = human mucolipin-1 channel agonism. AID 624414. Q9GZU1. TRPML1-expressing cells, Ca2+ dye fluorescence, FDSS; host cell line not named in the record; reference of the full effect not given here. activation, % (no concentration beside the values). 410,000 compounds, 0.12% hits; in the data active = activation above about 50%; inconclusive = about 30% to 50%; inactive = below about 30%; also: 0% is about no effect; the text of the record puts the active cut at 80%
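In this qHTS format, compounds were pin-transferred onto Ca8-dye-loaded TRPML1-DL cells induced with Tet overnight, and intracellular Ca2+ fluorescence was recorded kinetically for 110 s after a 10 s baseline. A subsequent 4uM final 54-4 (EC80) addition followed by a second 110 s read served as the antagonist phase.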
The depositor's hits bear a star; ? = inconclusive; · = no result given; & = joins results of further samples.

SMILES | TRPV1 PAM | Six1-Eya2 blk | TRPML1 blocker | D2 potentiator | CtBP-E1A blk | TRPML1 agonist
COc1ccc(-n2c(C)nnc2SCC(=O)N2CCOCC2)cc1 | 1 | 3 | -11 | -3 | 9 | 0.0
CC1CCN(C(=O)Nc2ccc3nsnc3c2)CC1 | -21 | 4 | 3 | -14 | 11 | 0.4
CSc1sccc1/C=C(/C#N)C(=O)c1ccco1 | 18 | 4 | -6 | -6 | -1 | 0.6
COc1ccc(CCNC(=S)NCCc2c[nH]c3ccccc23)cc1 | 2 | -18 | -8 | -14 | · | -0.3
NC(=O)C1CCN(CC(=O)NC2CCCc3ccccc32)CC1 (configuration not stated) | -1 | -3 | 2 | -3 | 7 | 0.5
COc1ccc(OC)c(N2C(=O)CCCC2=O)c1 | 16 | 12 | -14 | -2 | 4 | 0.4
O=C(NNC(=O)C1CC(c2cccnc2)=NO1)Nc1ccccc1F (configuration not stated) | 8 | 3 | -2 | -11 | · | 0.9
Cc1ccc2nc(C)c3c(c2c1)SCC3 | 25 | 1 | -12 | -3 | -3 | -0.3
COCCN(C(=O)COC(=O)CCc1c[nH]c2ccccc12)c1c(N)n(Cc2ccccc2)c(=O)[nH]c1=O | 3 | 0 | 23 | 9 | -7 | 0.6
O=C(O)C1Cc2ccccc2CN1C(=O)CSc1nnc2ccccn12 (configuration not stated) | -36 | 8 | -13 | 0 | -2 | 0.2
O=S(=O)(CCNCCc1ccccc1)NC1CCCCC1 | · | 1 | 19 | -19 | 5 | -0.2
COc1ccc(NC(=O)c2ccc(NC(=O)CN3CCC(C(N)=O)CC3)cc2)cc1 | · | 0 | -10 | 2 | 2 | -0.5
O=C(Nc1cccc(C(F)(F)F)c1)c1cccnc1N1CCOCC1 | 4 | 6 | -10 | -6 | · | 0.1
COc1ccccc1NC(=O)CCN1C(=O)C2C3CCC(C3)C2C1=O (configuration not stated) | 7 | -2 | 8 | 5 | -2 | 0.0
CC1CCCN(S(=O)(=O)c2ccc(NC(=O)C3CC(=O)N(c4ccccc4)C3)cc2)C1 (configuration not stated) | -2 | -13 | 15 | -1 | 0 | 1.3
NC(=S)N/N=C/c1cccc(O)c1O | 12 | -80* | -11 | 16 | -93* | 0.3
CC(C)c1ccc(NC(=O)c2cc(Br)ccc2Br)cc1 | -10 | 0 | 51 | -6 | · | 2.0
CC(C)c1onc(C(=O)NC2CCCCC2)c1[N+](=O)[O-] | -5 | -6 | -3 | -11 | 8 | -0.4
Cc1cc2cc(CNC(=O)Cc3cccs3)ccc2n1C | -15 | -4 | 96 | -8 | -7 | 1.4
Cc1cc(=O)cc(C)n1-c1ccc2c(c1)nc(C)n2-c1ccccc1 | 1 | 0 | -1 | -4 | 0 | -0.3
COc1ccc(C(=O)/C=C2/c3ccccc3CC(C)(C)N2C)cc1 | -15 | -9 | 52 | -9 | -13 | -0.2
CC(C)c1ccc(NC(=O)COc2ccccc2)cc1 | -6 | 12 | -8 | -7 | 1 | -0.6
COC(=O)C1=C(C)N=C2SC(C)C(=O)N2C1/C=C/c1ccccc1OC (configuration not stated) | -7 | 7 | 29 | -16 | 18 | 0.1
COc1ccc(C2=NOC(C(=O)NCC(C)C)C2)cc1 (configuration not stated) | 6 | 4 | -14 | -1 | 14 | 1.7
CCOC(=O)C1CCN(c2nc(N)c3c(N)nc(SCC(=O)O)cc3c2C#N)CC1 | -2 | -29 | · | 4 | ? | ·
CC(=O)NCCC(=O)Nc1ccc(C)c(F)c1 | -5 | -1 | 7 | -14 | 6 | -0.4
Cc1cc(C(=O)O/N=C(\N)c2ccncc2)ccc1[N+](=O)[O-] | · | -11 | ? | 15 | -1 | 0.3
CCOc1ccc(OCC)c(NC(=O)C2CCN(c3nn4c(=O)cc(C)nc4s3)CC2)c1 | 1 | -15 | 6 | -20 | -15 | -0.2
CCN1CCN(c2ncnc3c2cnn3-c2ccccc2)CC1 | -2 | 3 | -14 | -6 | 0 | 0.0
CC(C)(CO)NC(=O)c1ccc2c(c1)C(=O)c1ccccc1-2 | -26 | -10 | 3 | -7 | -10 | -0.1
CN(C)S(=O)(=O)c1ccc(C(=O)Nc2nc3ccccc3[nH]2)cc1 | 4 | 2 | 10 | 24 | 13 | 0.5
COc1cc(OC)c(C2C(C#N)=C(N)OC3=C2C(=O)CC(C)(C)C3)cc1OC (configuration not stated) | -3 | -1 | -3 | -1 | -5 | -0.8
CCOc1cc(C(N)=O)cc(Br)c1OCc1ccccc1 | 4 | -1 | 17 | -5 | 9 | 1.7
Cc1ccc([C@H]2C[C@H](O)[C@@H](n3cc(C4CC4)nn3)CN2CC2CCCCC2)cc1 | · | -4 | 8 | 1 | 3 | -0.7
CSc1ncc(CN2CCN(CCC(C)C)C(CCO)C2)cn1 (configuration not stated) | -4 | 2 | -10 | -8 | -1 | 0.2
COC(=O)C1=C(O)/C(=C\c2ccc(CNS(=O)(=O)c3ccc(Cl)cc3)o2)N=C1C | 6 | 0 | -15 | 0 | 0 | 1.2
COc1ccccc1Oc1coc2cc(OC(=O)N3CCOCC3)ccc2c1=O | -6 | 2 | 1 | 1 | 2 | -0.6
COc1cc2c(cc1NC(=O)COC(=O)CNC(=O)c1ccccc1)oc1ccccc12 | -1 | -2 | 20 | -1 | -2 | -0.1
Cc1ccc2c(c1)-c1cc(C)nn1C(c1sccc1C)N2 (configuration not stated) | 7 | 32 | 15 | -2 | 13 | 2.5
COC(=O)c1nc(NC(=O)c2ccccc2Br)n[nH]1 | -5 | 1 | -21 | -20 | -12 | 0.1
CC(=O)N(c1ccc(N(C(C)=O)S(=O)(=O)c2cccs2)cc1)S(=O)(=O)c1cccs1 | ? | -3 | -7 | -3 | 5 | 1.5
CC1CCN(c2ccc(/C=C(\C#N)c3nn(-c4ccccc4)c(N)c3C#N)cc2[N+](=O)[O-])CC1 | 0 | -16 | 29 | -26 | -14 | 0.8
Cc1cc(C)c(C2=NOC3C4CCC(C4)C23)c(C)c1 (configuration not stated) | -10 | 6 | -1 | -10 | 13 | 1.4
COc1ccc(Br)cc1/C=N/NC(=O)Cn1nnnc1N | 8 | 3 | -15 | -18 | 4 | 0.1
C[C@]12CC[C@@H]3c4ccc(OC(=O)c5ccccc5)cc4CC[C@H]3[C@@H]1CC[C@@H]2O | -3 | -3 | 6 | -6 | -6 | -0.7
COc1ccccc1C(=O)NC(=O)COC(=O)CNC(=O)c1ccc(Cl)c([N+](=O)[O-])c1 | -14 | -8 | 7 | 18 | -1 | 2.2
CCOC(=O)CSc1n[nH]c(-c2ccco2)n1 | 1 | 1 | 5 | 0 | 3 | 0.1
COc1ccc(N2CCN(C(=O)C3CCN(S(=O)(=O)c4cccs4)CC3)CC2)cc1 | 0 | -9 | 6&-10 | -5 | -2 | -0.4&-0.2
Cc1ccc2nc(SCC(=O)N3CCCC3)nc(=O)n2c1 | 9 | 5 | -7 | 1 | -3 | -0.5
C[C@@H](c1ccccc1)N1C[C@@H](COCc2ccccc2)Oc2cc(N3CCC[C@H]3CO)ccc2S1(=O)=O | · | -10 | · | · | -4 | -0.1
CCOC(=O)/C(=N/Nc1ccc(OC)cc1)Sc1nnc(CCc2ccccc2)n1-c1ccccc1 | -18 | -1 | -21 | -19 | -2 | 2.3
Cc1ccc(S(=O)(=O)N=N/C=C2\C=CC=CN2O)cc1 | · | 4 | -5 | -10 | 4 | -0.2
Cc1ccc(SCC(=O)Nc2c(Br)cnn2C)cc1 | ? | -5 | 10 | 2 | -18 | 1.3
NC(=O)c1ccsc1NC(=O)COC(=O)c1cnccn1 | 4 | -12 | -21 | -8 | -22 | 0.4
O=C1NCC(=O)N(Cc2ccccc2)/C1=C/c1ccccc1 | 11 | 7 | -6 | 4 | 4 | -0.5
Cc1c(O)ccc2c3c(c(=O)oc12)CCCC3 | 6 | -15 | 2 | 5 | -25 | 0.9
CCOC(=O)c1ccc(NC(=O)CSc2nnc(-c3cccs3)n2C)cc1 | -4 | 2 | -6 | -18 | 6 | -1.1
CCOCCCn1c(SCC(=O)Nc2ccc3[nH]c(=O)[nH]c3c2)nc2ccccc2c1=O | 20 | -4 | -7 | ? | -1 | -0.1
COc1ccc(OC)c(C2=Nn3c(nnc3-c3cc(OC)c(OC)c(OC)c3)SC2)c1 | -12 | -17 | 50 | -9 | -26 | 0.8
CCCC1(C(=O)OCC)NC(c2ccco2)C2C(=O)N(C)C(=O)C21 (configuration not stated) | 4 | 4 | 14 | -1 | 0 | -0.9

Single entries from the results shown:
`COc1ccc(NC(=O)c2ccc(NC(=O)CN3CCC(C(N)=O)CC3)cc2)cc1` | TRPML1 blocker: -10
`Cc1ccc2c(c1)-c1cc(C)nn1C(c1sccc1C)N2` (configuration not stated) | D2 potentiator: -2

Structural class: the entries above containing a Cl atom
SMILES | TRPV1 PAM | Six1-Eya2 blk | TRPML1 blocker | D2 potentiator | CtBP-E1A blk | TRPML1 agonist
COC(=O)C1=C(O)/C(=C\c2ccc(CNS(=O)(=O)c3ccc(Cl)cc3)o2)N=C1C | 6 | 0 | -15 | 0 | 0 | 1.2
COc1ccccc1C(=O)NC(=O)COC(=O)CNC(=O)c1ccc(Cl)c([N+](=O)[O-])c1 | -14 | -8 | 7 | 18 | -1 | 2.2

Other records.
SMILES | TRPV1 PAM | Six1-Eya2 blk | TRPML1 blocker | D2 potentiator | CtBP-E1A blk | TRPML1 agonist
Nc1nc(N)nc(-c2ccccc2-c2nc(N)nc(N)n2)n1 | -14 | 0 | -4 | -6 | · | -0.4
CCC(=O)Nc1c(C(=O)Nc2cccc(OC)c2)oc2ccccc12 | -2 | 1 | -12 | -18 | 3 | 1.4
O=[N+]([O-])c1cc(C(F)(F)F)ccc1NCCc1ccncc1 | -15 | -8 | -18 | -9 | -5 | 0.0
COc1ccc(OC)c(C=Cc2ccc([N+](=O)[O-])cc2)c1 | · | 5 | 35 | -9 | -17 | 4.2
Cn1nc(C(=O)NCc2ccc(F)cc2)c2ccccc2c1=O | -9 | -3 | 3 | -7 | -1 | -0.4
CCc1nnc(SCC(=O)Nc2ccc(N3CCOCC3)cc2)o1 | 0 | 4 | -9 | -2 | 0 | 0.5
COc1ccccc1CNC(=O)C1Cc2cc(S(=O)(=O)N3CCCC3)ccc2N1C(C)=O (configuration not stated) | -6 | 22 | 0 | -5 | 19 | -0.6
N=c1sccn1CC(=O)Nc1cc(S(=O)(=O)N2CCCC2)ccc1Cl | -5 | -7 | 1 | -14 | -7 | -0.5
Cc1[nH]c(=O)[nH]c(=O)c1NC(=O)CSc1ncccc1-c1nc2ccccc2[nH]1 | 14 | -12 | -15 | -3 | -7 | 2.0
COc1ccc(NC(=O)N(CCc2ccccc2)Cc2cc3c(C)cc(C)cc3[nH]c2=O)cc1 | 13 | -8 | 35 | -11 | -15 | 3.1

For convenience, some entries already given.
SMILES | TRPV1 PAM | Six1-Eya2 blk | TRPML1 blocker | D2 potentiator | CtBP-E1A blk | TRPML1 agonist
COc1ccc(-n2c(C)nnc2SCC(=O)N2CCOCC2)cc1 | 1 | 3 | -11 | -3 | 9 | 0.0
CC1CCN(C(=O)Nc2ccc3nsnc3c2)CC1 | -21 | 4 | 3 | -14 | 11 | 0.4

Entries above that bear a hit mark in CtBP-E1A blk:
| SMILES | Six1-Eya2 blk | TRPML1 blocker | D2 potentiator | CtBP-E1A blk |
| --- | --- | --- | --- | --- |
| NC(=S)N/N=C/c1cccc(O)c1O | -80* | -11 | 16 | -93* |

Screening results: PubChem, National Center for Advancing Translational Sciences (NCATS)
